Screens from PubChem.
UCH37 inh – blocks the human deubiquitinase UCH37. purified proteasome/UCH37, Ub-AMC cleavage fluorescence. Q9Y5K5. inhibition, % (no concentration beside the values). AID 588478. actives 0.33% (n = 330,000);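 active means mean of two replicates above 20%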;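 further: 0% = compound-free wells with enzyme and 100% = wells lacking proteasome; stock transfer was 100 nL into about 20 µL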
Target sequence (Q9Y5K5 whole entry, looked up): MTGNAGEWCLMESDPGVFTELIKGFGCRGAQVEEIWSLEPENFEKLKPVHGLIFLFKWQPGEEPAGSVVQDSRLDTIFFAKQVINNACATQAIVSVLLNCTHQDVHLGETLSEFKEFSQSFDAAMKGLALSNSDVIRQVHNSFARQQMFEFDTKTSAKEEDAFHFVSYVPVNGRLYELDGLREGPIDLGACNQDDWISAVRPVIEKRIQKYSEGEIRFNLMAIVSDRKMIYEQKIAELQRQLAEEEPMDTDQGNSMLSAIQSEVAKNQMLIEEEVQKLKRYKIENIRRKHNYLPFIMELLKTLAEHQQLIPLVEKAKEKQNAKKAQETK
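Signal – fluorescence, ex 355 nm, em 460 nm · System – Proteasome-bound UCH37 · Input – 0.15 nM proteasome as dispensed · Timing – 30 min preincubation with enzyme, 25 min cleavage at room temperature · Read-out basis – percent inhibition of cleavage signal versus uninhibited and no-proteasome wells · Medium – Tris-HCl pH 7.4 with ATP-MgCl2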
E coli growth – inhibitors of Escherichia coli growth; OD600, 23 h; active compounds read low; OD600 absorbance (no concentration beside the values); actives 0.21% (n = 330,000); AID 1053175;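 active means OD600 absorbance below the run mean of sample wells minus 3.6 SD, in any replicate, cut at about 0.56 in these data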;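 further: stock transfer was 300 nL into about 60 µL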
Active calls of the source: *. Only part of the results is shown; rates above refer to the full screens.

E coli growth | UCH37 inh | structure
0.74 | 4.9 | CC1(C)C2CC=C(C=NNC(=O)c3ccc(O)cc3)C1C2 (centres undefined)
0.71 | 3.2 | Cc1ccc(-n2ncc(C#N)c2N=CN2CCN(C)CC2)cc1
0.7 | 1.1 | CCOc1ccc(C=NNC(=O)Nc2ccccc2)cc1
0.62 | -69 | COc1ccc(Br)cc1C=NNC(=O)c1cc(Br)ccc1O
0.66 | 3.1 | COc1cccc2cc(C(N)=O)c(=NNC(=O)COc3ccc(Cl)cc3)oc12
0.74 | 2.6 | CCOc1cccc(C=NNS(=O)(=O)c2ccc(C)c([N+](=O)[O-])c2)c1O
0.69 | 3.8 | NC(=NOC(=O)c1ccccc1[N+](=O)[O-])c1cccnc1
0.67 | 0.4 | O=C(Cc1ccccc1)NN=Cc1cc(Br)c(Br)o1
0.76 | 1.6 | CCCC=NNC(=O)c1ccc(F)cc1
0.7 | 5.2 | Cc1cc(C=NNC(=O)c2cccc([N+](=O)[O-])c2)c(C)n1-c1ccc(Cl)cc1Cl
0.73 | 6.7 | CN(C)c1ccc(C=NN2C(=O)c3ccccc3C2=O)cc1
0.68 | -10 | Cn1cccc1C=NNC(=O)c1cc(-c2cccs2)nc2ccccc12
0.77 | -7.1 | COc1ccc(C=NNc2snc(SC)c2C#N)cc1OC
0.77 | 1.9 | COc1ccc(C=NN2CCN(c3ccncc3S(=O)(=O)N3CCCCC3)CC2)cc1
0.65 | 4.1 | CCCC(=O)Nc1ccc(C(=O)NN=Cc2cccnc2)cc1
0.69 | -3.3 | CC1(C)OC2OC(C(=O)NN=Cc3cc(Br)ccc3O)C3OC(C)(C)OC3C2O1 (centres undefined)
0.68 | 2.0 | CC1CCCC(C)N1N=Cc1ccccc1Br (centres undefined)
0.68 | 0.2 | Nc1cc(Cl)nc(NN=Cc2ccccc2[N+](=O)[O-])n1
0.73 | 1.5 | CCOC(=O)C1=C(c2ccccc2)N=c2sc(=Cc3ccc(O)cc3)c(=O)n2C1c1cccs1 (centres undefined)
0.67 | 9.1 | O=C(NN=Cc1cc2c(c([N+](=O)[O-])c1)OCO2)c1ccncc1
0.68 | 4.1 | CC(=N/N=C1/NC(=O)C(CC(=O)Nc2ccc(Cl)cc2)S1)c1ccco1 (centres undefined)
0.66 | 4.0 | COc1cccc(C=NNC(=O)C(=O)N2CCCC2)c1
0.69 | -0.3 | Cc1nnsc1C(=O)NN=Cc1c(F)cccc1Cl
0.72 | 5.5 | COc1cccc(C=NN2CCN(C3c4ccccc4-c4ccccc43)CC2)c1O
0.65 | 8.9 | CCOc1cc(C=NNC(=O)C(=O)NCC2CCCO2)ccc1OCC(=O)N1CCOCC1 (centres undefined)

An excerpt of these results, field by field:
CCCC(=O)Nc1ccc(C(=O)NN=Cc2cccnc2)cc1
  E coli growth: 0.65
  UCH37 inh: 4.1

CC1(C)OC2OC(C(=O)NN=Cc3cc(Br)ccc3O)C3OC(C)(C)OC3C2O1 (centres undefined)
  E coli growth: 0.69
  UCH37 inh: -3.3

Later entries:
E coli growth | UCH37 inh | structure
0.68 | 15 | O=C(O)c1ccc(NN=Cc2ccc(C(F)(F)F)cc2)cc1
0.68 | -0.2 | COc1ccc(C=NN=C2SCC(=O)N2Cc2ccccc2)cc1
0.67 | 2.9 | CC(Cc1ccccc1)=NNC(=O)C1CCCCC1
0.64 | 1.0 | CC(=NNC(=O)c1cccc(Br)c1)c1cccnc1
0.7 | 2.1 | Cc1cc(-c2n[nH]c(=S)n2N=Cc2ccc(C)o2)n[nH]1
0.69 | -1.1 | CN(C)C=Nc1c(C#N)cnn1-c1ccccc1
0.7 | -1.8 | O=C(CCCOc1ccc(Cl)cc1Cl)NN=CC1CCCCC1
0.61 | 7.4 | Cc1ccc(NCC(=O)NN=Cc2cccn2C)cc1
0.69 | 2.5 | Cc1ccccc1NC(=O)CCC(=O)NN=Cc1c[nH]c2ccccc12
0.68 | 1.6 | Cc1cc(C)nc(SCC(=O)NN=Cc2cccs2)n1
0.69 | 4.0 | CCOc1cc(C(=O)N(CC)CC(=O)Nc2c(F)cccc2F)ccc1OCC(=O)N1CCOCC1
0.71 | -1.5 | CC(=NNC(=O)c1nnn(-c2nonc2N)c1COc1ccc(F)cc1)c1ccc(Cl)cc1
0.77 | 1.8 | CCSc1ncc(C=NNc2ccccc2)n1C
0.63 | 2.8 | Cc1cc(=O)[nH]c(NN=Cc2c(C)nn(-c3ccc(F)cc3)c2Cl)n1
0.66 | 2.3 | COc1ccccc1C(=O)NN=C(C)CC(=O)Nc1ccc2c(c1)OCCO2
0.7 | -1.9 | COc1ccccc1C(=O)NN=Cc1ccc2c(c1)OCO2
0.72 | 3.4 | Cc1cc(C)cc(N(CC(=O)NN=Cc2ccncc2)S(=O)(=O)c2ccccc2)c1
0.69 | 2.9 | CC(=NNC(=O)c1cc(C)[nH]n1)c1ccc(-c2ccccc2)cc1
0.6 | -17 | O=C(NN=Cc1c[nH]c2ccccc12)c1cc(Cl)ccc1O
0.71 | -1.0 | O=C(CC(=O)NN=Cc1ccc(C(=O)O)cc1)NCCc1ccccc1
0.77 | 3.7 | Cc1ccc(C=NNC(=O)c2cc(OCC(F)(F)F)ccc2OCC(F)(F)F)cc1
0.72 | 1.1 | Cc1ccc(-c2cc(C(=O)NN=Cc3ccco3)[nH]n2)cc1
0.7 | 5.5 | COc1ccc(C=Nn2cnc3c([nH]c4ccc(Br)cc43)c2=O)cc1CN1CCOCC1
0.71 | 0.1 | CCC(C(=O)NN=C(C)c1cccnc1)c1ccccc1 (centres undefined)
0.65 | 2.3 | N#CCCn1cc(C=NNC(N)=S)c(-c2ccccc2)n1

E coli growth | UCH37 inh | structure
0.7 | 3.9 | CCN1C(=c2sc(=C3C(=O)N(c4ccccc4)N=C3C)n(CC)c2=O)C=Cc2ccccc21
0.68 | 9.9 | CCOc1ccc(-n2c(C)cc(C=NNC(=O)C(N)=O)c2C)cc1
0.73 | -1.0 | C=CCn1c(COc2ccccc2)nnc1SCC(=O)NN=Cc1ccc(C)cc1
0.66 | 2.3 | O=C(CSc1nc2ccccc2[nH]1)NN=C/C=C\c1ccccc1[N+](=O)[O-]
0.7 | 3.3 | CON=CC(=NNc1ccccc1)C(=O)c1ccccc1
0.67 | 9.7 | COc1cc(C=NNC(=O)c2cccc(N3CCCC3=O)c2)ccc1O
0.7 | 3.2 | COc1ccc(C=NNC(=O)CN2CCCCCCC2)c(C)c1C
0.7 | -11 | CCc1c(C(=O)NN=Cc2ccc(OCc3ccc(F)cc3)c(OC)c2)nnn1-c1nonc1N
0.69 | 10 | O=C(O)c1cccc2c1-c1ccccc1C2=NNc1ccccc1
0.62 | -1.2 | COc1cc(C=Nn2nnnc2Nc2ccccc2)cc(OC)c1OC
0.66 | 1.0 | CCOc1ccc(C=NNC(=O)c2nnn(-c3nonc3N)c2CN(C)C2CCCCC2)cc1
0.63 | 2.4 | Cc1cc(C=Nn2cnnc2)c(C)n1-c1ccc(OCc2ccccc2F)cc1
0.67 | 2.5 | CCOC(=O)c1c(N=Cc2cccc(C)c2O)sc2c1CCN(C)C2
0.66 | -49 | Cc1ccc2nc(C)cc(NN=Cc3cccc(O)c3)c2c1
0.69 | 1.9 | Clc1ccc(C=NNc2nnc(-c3ncc[nH]3)c3ccccc23)cc1
0.67 | 1.7 | CC(=NNC(=S)NCCc1ccccc1)c1cccc(Br)c1
0.81 | 3.0 | COc1ccc(C=NNC(=O)c2cc(OCC(F)(F)F)ccc2OCC(F)(F)F)cc1
0.72 | -2.0 | Cc1ccsc1C=NNC(=O)c1nnn(-c2nonc2N)c1C
0.7 | 0.6 | O=C(Cn1cc(C(F)(F)F)ccc1=O)NN=Cc1ccccc1O
0.7 | 2.5 | COc1ccc(NC(=O)COc2ccc(C=NO)cc2OC)cc1
0.74 | 4.5 | COc1cccc(NC(=O)C(=O)NN=Cc2ccc3c(c2)OCO3)c1
0.7 | 3.3 | Brc1cccc(C=Nn2cnnc2)c1
0.67 | 11 | Cc1ccsc1C=NNC(=O)c1cc(C(C)(C)C)[nH]n1
0.62 | -204 | O=C(NN=Cc1[nH]c2ccccc2c1Cl)c1cccc(Br)c1
0.66 | 2.9 | CC(=NNC(=O)c1cccs1)c1ccncc1

The list goes on; the last six above are carried over.
E coli growth | UCH37 inh | structure
0.7 | 2.5 | COc1ccc(NC(=O)COc2ccc(C=NO)cc2OC)cc1
0.74 | 4.5 | COc1cccc(NC(=O)C(=O)NN=Cc2ccc3c(c2)OCO3)c1
0.7 | 3.3 | Brc1cccc(C=Nn2cnnc2)c1
0.67 | 11 | Cc1ccsc1C=NNC(=O)c1cc(C(C)(C)C)[nH]n1
0.62 | -204 | O=C(NN=Cc1[nH]c2ccccc2c1Cl)c1cccc(Br)c1
0.66 | 2.9 | CC(=NNC(=O)c1cccs1)c1ccncc1
0.62 | 4.1 | CC(=NNC(=O)COc1ccc([N+](=O)[O-])cc1)C(C)(C)C
0.69 | 3.5 | Cc1cc(C)n(CC(=O)NN=Cc2ccc(C)o2)n1
0.68 | 2.9 | Cc1cc(C)nc(N=C(N)Nc2cccc([N+](=O)[O-])c2)n1
0.72 | 3.7 | CCOc1ccc(N(CC(=O)NN=Cc2cccnc2)S(C)(=O)=O)cc1
0.7 | 6.2 | COc1ccc(C=NNC(=O)c2cccc(O)c2)cc1Cn1nc(C)c([N+](=O)[O-])c1C
0.69 | 1.8 | C(=NN(c1ccccc1)c1ccccc1)c1ccc2c(c1)OCO2
0.64 | 3.3 | COC(=O)NN=Cc1ccc(OC/C=C/c2ccccc2)c(OC)c1
0.65 | 7.4 | COc1ccc(C(=O)C(C#N)=NNc2ccc([N+](=O)[O-])cc2)cc1
0.66 | 5.9 | Cc1csc(NN=Cc2c(F)cccc2Cl)n1
0.64 | 6.5 | CCOc1ccc(NC(C)C(=O)NN=Cc2ccc([N+](=O)[O-])cc2)cc1 (centres undefined)
0.76 | 0.1 | CN1C(=O)N(C)C2(c3ccccc3)Nn3c(sc(=Cc4ccccc4F)c3=O)=NC12c1ccccc1 (centres undefined)
0.71 | 1.9 | O=C(NN=Cc1ccsc1)c1cc(-c2ccncc2)nc2ccccc12
0.69 | 10 | O=C(O)c1cc(NN=C/C(Cl)=C/c2ccccc2)ccc1Cl
0.71 | 0.3 | CCOc1ccc(NC(=O)C(=O)NN=Cc2ccccc2F)cc1
0.74 | -12 | Cc1cccc2cc(C=NNC(=O)[C@H]3C[C@@H]3c3ccccc3)c(Cl)nc12
0.71 | 9.5 | S=c1[nH]nc(-c2cc(-c3ccccc3)n[nH]2)n1N=Cc1c(Cl)cccc1Cl
0.65 | 4.9 | O=[N+]([O-])c1ccc(O)c(C=NNc2ccccc2Cl)c1
0.68 | 4.6 | CCC(=O)Oc1ccc(CC(=NO)c2ccc(O)cc2O)o1
0.72 | 1.3 | O=C(Cc1cc(=O)[nH][nH]1)NN=Cc1ccccc1Cl
0.68 | 2.7 | O=C(CON=Cc1c(Cl)cccc1Cl)NNC(=O)c1cccc(Cl)c1
0.69 | 4.2 | Cn1ccsc1=NC(=O)Nc1ccccc1
0.68 | 5.6 | O=C(NN=Cc1ccccc1)C(=O)NN=Cc1ccccc1
0.72 | 3.4 | CC(=NNC(=O)C1COc2ccccc2O1)c1ccco1 (centres undefined)
0.71 | 3.7 | O=C(O)CC1SC(=NN=Cc2ccccc2)N(c2ccc(O)cc2)C1=O (centres undefined)
0.7 | 1.4 | CC(CCc1ccco1)=NNC(=O)CCC(=O)Nc1cccc(Cl)c1

E coli growth | UCH37 inh | structure
0.56 | 7.5 | O=C(NN=C/C(Br)=C\c1ccccc1)c1ccco1
0.69 | 4.5 | COc1ccccc1C=NNC(=O)NC12CC3CC(CC(C3)C1)C2
0.65 | -11 | Cc1[nH]c2ccccc2c1C=NNC(=O)c1cccc(S(=O)(=O)Nc2ccccc2Cl)c1
0.72 | 3.9 | O=C(CO)NN=Cc1ccccc1F
0.7 | 5.0 | CN(C)N=C/C=C1\CC/C(=C\c2ccc(Br)cc2)C1=O
0.67 | -0.9 | COc1ccc(C(=O)ON=C(C)c2ccccc2)cc1
0.78 | -92 | CC(=NNC(=O)c1cc(Cl)ccc1O)C12CC3CC(CC(C3)C1)C2
0.67 | 6.0 | COCCNC(=O)C(=O)NN=Cc1cccs1
0.71 | 6.9 | Cc1cccc(NN=Cc2ccc(O)c(O)c2O)c1
0.69 | 1.4 | CC(=NNC(=O)c1cccc(S(=O)(=O)N2CCCC2)c1)c1ccc(OCC(=O)N(C)C)cc1
0.73 | 4.6 | COc1ccc([N+](=O)[O-])cc1C=NNC(=O)Cc1ccccc1
0.77 | 4.0 | O=C(NN=Cc1ccc(F)cc1)c1csnn1
0.69 | 3.0 | COCCN=c1scc(-c2ccc3c(c2)NC(=O)CO3)n1N=C(C)c1ccc(O)cc1
0.6 | 2.6 | CC(=NNC(=S)Nc1ccccc1C)C1Cc2ccccc2C(=O)O1 (centres undefined)

Compound profiles (already shown). Screens in order: E coli growth	UCH37 inh
`COc1ccc(C(=O)ON=C(C)c2ccccc2)cc1` is entered as 0.67	-0.9
`CC(=NNC(=O)c1cc(Cl)ccc1O)C12CC3CC(CC(C3)C1)C2` is entered as 0.78	-92
`CN(C)N=C/C=C1\CC/C(=C\c2ccc(Br)cc2)C1=O` is entered as 0.7	5.0
`CC(=NNC(=O)c1cccc(S(=O)(=O)N2CCCC2)c1)c1ccc(OCC(=O)N(C)C)cc1` is entered as 0.69	1.4
`COc1ccccc1C=NNC(=O)NC12CC3CC(CC(C3)C1)C2` is entered as 0.69	4.5
